# Compound activity deposited in PubChem BioAssay by Johns Hopkins Ion Channel Center.
# KCNQ2 inh: KCNQ2 potassium channel inhibitors, primary screen, cell-based, CHO-K1, FluxOR thallium flux, B-score (AID 2156). hit rate 1.1% among 310,000. B-score at 10 µM. Potassium voltage-gated channel subfamily KQT member 2 (Rattus norvegicus), O88943. 20 min; hits give low values; only compounds with negative scores are shown here; some inactives read as strong as hits;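 active means fluorescence ratio B-score at most minus 3 library SDs, with starting brightness B-score within 2 library SDs, cut at about -5.5 in these data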
# Target sequence (O88943 whole entry, looked up): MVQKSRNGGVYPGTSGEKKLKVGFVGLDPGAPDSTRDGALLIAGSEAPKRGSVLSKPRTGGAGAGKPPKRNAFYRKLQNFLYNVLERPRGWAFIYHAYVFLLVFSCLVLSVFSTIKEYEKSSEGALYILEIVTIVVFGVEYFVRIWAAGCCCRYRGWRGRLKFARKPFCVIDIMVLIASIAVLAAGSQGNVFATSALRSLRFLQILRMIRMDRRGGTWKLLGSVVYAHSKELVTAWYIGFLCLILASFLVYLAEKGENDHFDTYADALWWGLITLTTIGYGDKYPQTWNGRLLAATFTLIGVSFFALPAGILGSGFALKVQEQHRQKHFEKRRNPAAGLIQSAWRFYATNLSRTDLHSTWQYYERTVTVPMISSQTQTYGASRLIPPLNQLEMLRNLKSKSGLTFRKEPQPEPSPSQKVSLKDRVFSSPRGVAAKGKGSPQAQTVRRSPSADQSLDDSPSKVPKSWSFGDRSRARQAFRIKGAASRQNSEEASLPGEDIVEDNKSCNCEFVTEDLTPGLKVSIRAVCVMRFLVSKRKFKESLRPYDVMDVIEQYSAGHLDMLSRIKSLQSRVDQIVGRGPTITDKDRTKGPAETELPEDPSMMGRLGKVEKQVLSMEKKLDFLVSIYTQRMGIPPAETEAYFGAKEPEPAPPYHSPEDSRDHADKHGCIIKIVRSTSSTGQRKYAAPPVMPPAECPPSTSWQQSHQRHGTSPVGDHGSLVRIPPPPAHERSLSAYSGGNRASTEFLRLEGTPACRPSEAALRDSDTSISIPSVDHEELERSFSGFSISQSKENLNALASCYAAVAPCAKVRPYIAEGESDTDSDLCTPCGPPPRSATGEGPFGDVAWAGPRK
# KCNQ2 inh baseline: further read-out of KCNQ2 inh, marked with its call; B-score; measured here: initial fluorescence intensity artifact check;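 brightness before thallium and not channel activity; 0 = typical well and far values either way flag optical interference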
# Numbers without * were called inactive; i = inactive.
# Each structure is followed by: KCNQ2 inh baseline	KCNQ2 inh
- Cc1ccc(C)c(S(=O)(=O)N2CCCC2CNC(=O)C(=O)NC2CC2)c1 (stereo not drawn)
→ 0.1	i
- COc1cccc(OC)c1C(=O)Nc1nnc(-c2ccc(F)cc2)s1
→ 0.36	i
- Cc1c(NS(=O)(=O)c2cccc(C(=O)NCc3ccccc3)c2)c(=O)n(-c2ccccc2)n1C
→ -0.01	i
- CCCN(CC(=O)Nc1ccccc1C)C(=O)c1ccc(N2CCOCC2)c([N+](=O)[O-])c1
→ 0.69	i
- Cc1cc(NC(=O)c2ccc(F)cc2)n(C)n1
→ -1.1	i
- COC(=O)c1sccc1NC(=S)Nc1ccc(OC)cc1
→ -0.17	i
- NS(=O)(=O)c1ccc(CCNC(=O)c2ccc3c(c2)OCCO3)cc1
→ 0.46	i
- O=C(Nc1ncc([N+](=O)[O-])s1)C1CCN(S(=O)(=O)c2cnc[nH]2)CC1
→ 1.6	i
- COC(=O)c1sc(-c2ccccc2)cc1NC(=O)c1ccccc1
→ 0.82	i
- Cc1cccc(NC(=S)NN(Cc2ccccc2)c2ccccc2)c1C
→ 1.7	i

# The closing three records of the part above open the next one.
# Each structure is followed by: KCNQ2 inh baseline	KCNQ2 inh
- O=C(Nc1ncc([N+](=O)[O-])s1)C1CCN(S(=O)(=O)c2cnc[nH]2)CC1
→ 1.6	i
- COC(=O)c1sc(-c2ccccc2)cc1NC(=O)c1ccccc1
→ 0.82	i
- Cc1cccc(NC(=S)NN(Cc2ccccc2)c2ccccc2)c1C
→ 1.7	i
- N#Cc1c2n(c3c(=O)n(CC(=O)c4ccc([N+](=O)[O-])cc4)cnc13)CCCCC2
→ 0.3	i
- CC(C)(C)C(=O)C(Oc1cccc2nonc12)n1cncn1 (stereo not drawn)
→ 0.62	i
- CC1CCN(S(=O)(=O)c2cccc(C(=O)NCc3cccs3)c2)CC1
→ -2.5	i
- O=C1c2ccccc2S(=O)(=O)N1CCOc1ccccc1
→ 1.9	i
- Cc1cc(C(=O)CSc2ccc3c(c2)OCCO3)c(C)n1C1CC1
→ 1.4	i
- CC(C)NC(=S)N/N=C/c1cccnc1
→ 1.6	i
- C=CCOC(=O)C1=C[C@H](c2ccc(Br)cc2)[C@@H](CCCO)[C@H](OCC)O1
→ 0.82	i
- C/C(=N\N=C1\NC(=O)C(CC(=O)Nc2ccc(C)c(Cl)c2)S1)C(C)(C)C (stereo not drawn)
→ 1.5	i
- O=C(Nc1ccc(-c2nc3ccccc3[nH]2)cc1)c1ccc2c(c1)OCO2
→ 0.75	i
- CC(CCc1ccccc1)NC(=O)c1ccc(NC(=O)c2ccccc2)cc1 (stereo not drawn)
→ 1.6	i
- S=c1[nH]nc(-c2ccc(Cl)cc2)n1/N=C/c1ccco1
→ -0.74	i
- COc1cc(C(=O)NCC(=O)NC(C)CCc2ccccc2)cc(OC)c1OC (stereo not drawn)
→ 0.23	i
- O=C(Nc1csc([N+](=O)[O-])c1)Nc1ccccc1Cl
→ -0.06	i
- N#Cc1ccccc1S(=O)c1ccccc1C(=O)Nc1ccccc1 (stereo not drawn)
→ 2.9	i
- COc1ccc(OCCOC(=O)c2[nH]c(C)c(C(C)=O)c2C)cc1
→ 0.44	i
- Cc1ccc(C(=O)/C=C/c2ccccc2[N+](=O)[O-])cc1
→ 0.02	i
- COc1ccc(C(=O)NC(C)c2csc(C)n2)cc1OC1CCN(C(C)=O)CC1 (stereo not drawn)
→ -0.69	i
- CCN(CC)CCCNC(=O)CSc1c2c(nc3cc(Cl)ccc13)CCCC2
→ 0.37	i
- CC(C)N1C(=O)C(Cc2nc3ccccc3c(=O)n2-c2ccccc2)c2ccccc21 (stereo not drawn)
→ 0.42	i
- CCn1c(CNC(=O)COc2c(C)cccc2C)nnc1SCC(=O)Nc1nccs1
→ 1.6	i
- CCOc1ccc(NS(=O)(=O)c2ccc(C(=O)N(CC)CC(=O)NCc3cccs3)cc2)cc1
→ 1.4	i
- COc1cccc2c1OC1(C)CC2NC(=O)N1c1cccc(C(=O)Nc2ccc3c(c2)OCCO3)c1 (stereo not drawn)
→ -0.32*	-6.7*
- CCOC(=O)c1oc2cc(OCC(=O)OC)ccc2c(=O)c1-c1ccc(OC)c(OC)c1
→ 0.11	i
- CCOc1ncccc1C(=O)N1CCN(C(=O)c2ccccc2)CC1
→ 1.5	i
- COC(=O)c1cc(=O)n(Cc2ccc(OC)c(OC)c2)c(=Nc2ccc(F)cc2)s1
→ 1.2	i
- CC1CCCN(S(=O)(=O)c2ccc(NC(=O)C3CC(=O)N(c4ccccc4)C3)cc2)C1 (stereo not drawn)
→ -1	i
- CCOC(=O)C1(Cc2ccc(OC)cc2)CCN(C(=O)C2CC(=O)N(C3CC3)C2)CC1 (stereo not drawn)
→ -0.23	i
- CSc1ccc(CN2CCC(Cc3ccccc3)CC2)cc1
→ -1.2	i
- Cc1ccc(-c2nnc(OCCN3CCOCC3)c3ccccc23)cc1
→ -0.17	i
- COc1ccc(C2CC(c3cccs3)=NN2C(=O)CSc2nc3ccccc3s2)cc1 (stereo not drawn)
→ 1.4	i

# Pulled by structure from above (four):
# Each structure is followed by: KCNQ2 inh baseline	KCNQ2 inh
- CCOC(=O)C1(Cc2ccc(OC)cc2)CCN(C(=O)C2CC(=O)N(C3CC3)C2)CC1 (stereo not drawn)
→ -0.23	i
- CCOc1ccc(NS(=O)(=O)c2ccc(C(=O)N(CC)CC(=O)NCc3cccs3)cc2)cc1
→ 1.4	i
- CCOC(=O)c1oc2cc(OCC(=O)OC)ccc2c(=O)c1-c1ccc(OC)c(OC)c1
→ 0.11	i
- Cc1ccc(-c2nnc(OCCN3CCOCC3)c3ccccc23)cc1
→ -0.17	i

# (listing goes on)
# Each structure is followed by: KCNQ2 inh baseline	KCNQ2 inh
- Clc1ccc(NCc2nnc3n2CCCCC3)cc1
→ -0.59	i
- COc1ccc2oc(=O)c(C(=O)n3ccc(C)n3)cc2c1
→ 1.2	i
- Cc1ccc(SCCNC(=S)Nc2cc(C)ccc2C)cc1
→ 0.14	i
- O=C(NCc1nc(-c2ccccc2)no1)c1ccc(Br)o1
→ -1.3	i
- COc1ccccc1C(=O)NC1CCSc2ccccc21 (stereo not drawn)
→ -0.57	i
- CCc1ccccc1NC(=O)CCNS(=O)(=O)c1cc(Br)cnc1N
→ -1	i
- O=C(CNS(=O)(=O)c1ccc(Br)s1)N1CCN(c2ccc(F)cc2)CC1
→ -2.3	i
- COc1c(C)cc(C(=O)C2CCCN(Cc3ccc(Oc4ncccn4)cc3)C2)cc1C (stereo not drawn)
→ 3.5	i
- Cc1ccc2nc(-c3cccc(S(=O)(=O)N4CC(C)OC(C)C4)c3)cn2c1 (stereo not drawn)
→ -0.03	i
- CCc1ccc(OCC(=O)Nc2ccc(S(=O)(=O)Nc3ccccn3)cc2)cc1
→ 0.32	i
- COc1ccccc1CNC(=O)C(CC(C)C)NS(=O)(=O)c1ccc2c(c1)oc(=O)n2C (stereo not drawn)
→ 1.9	i
- CCOc1ccc(-c2cn(-c3ccc(OC)cc3)c(SC)n2)cc1
→ -0.97	i
- O=c1cc(-c2cccnc2)oc2c1ccc1ccccc12
→ -1.4	i
- Cc1cccc(C)c1NC(=S)N1CCOCC1
→ 1	i
- CCOC(=O)N1CCC(N(C(=O)Nc2cccc(OC)c2)C(C)CC)CC1 (stereo not drawn)
→ 1.2	i
- CCOC(=O)NN1C(=O)c2ccccc2NC1c1cccc(O)c1 (stereo not drawn)
→ 0.72	i
- O=C(CCN1C(=O)c2ccccc2C1=O)NC(=S)Nc1ccccc1Cl
→ 0.67	i
- Cc1nc2ccccc2c2oc(C(=O)N3CCc4ccccc4C3)cc12
→ -0.39	i
- O=C(CCc1cn2ccccc2n1)NC1CCCc2c1cnn2-c1ccccc1F (stereo not drawn)
→ -0.25	i
- COc1ccc(-c2cc(-c3ccc(Cl)cc3)c(C#N)c(SCC(=O)O)n2)cc1
→ -0.47	i
- CCOC(=O)c1c(-c2ccc(-c3ccccc3)cc2)csc1NC(=O)CNCCN(C)C
→ 1.2*	-8.8*
- Cc1nc2ccccc2cc1C(=O)N(C)Cc1ccccc1
→ -1.2	i
- Cc1cc(C)n(C(C)CC(=O)N2CCc3ccccc32)n1 (stereo not drawn)
→ 0.22	i
- CCOC(=O)C1CCCN(C(=O)c2ccc3nc(-c4cccc(OC)c4)oc3c2)C1 (stereo not drawn)
→ 0.34	i
- Cc1ccc(C(C(=O)NCC2CCCO2)N(Cc2ccccc2)C(=O)c2ccc(-c3ccccc3)[nH]2)o1 (stereo not drawn)
→ 1.1	i
- C/C(N)=C(/C#N)C(=O)COC(=O)CSc1ccccc1
→ 1.5	i
- O=C(CCN1C(=O)[C@H]2CC=CC[C@H]2C1=O)NCc1nc(-c2ccc(Cl)cc2)no1
→ -1.1	i
- CCc1ccc(-c2cnc3ccccc3n2)cc1NC(=O)CNC(=O)c1ccccc1
→ 1.7	i
- CCCCN(C(=O)c1ccc([N+](=O)[O-])o1)c1c(N)n(CC(C)C)c(=O)[nH]c1=O
→ 0.61	i
- NC(=O)CC(NC(=O)Cc1cccc2ccccc12)c1ccc(NCCOc2ccccc2)c([N+](=O)[O-])c1 (stereo not drawn)
→ -1.7	i
- COc1ccc(S(=O)(=O)N2CCSC2c2ccc(N)cc2)cc1 (stereo not drawn)
→ -1.1	i
- CCC1CCCCN1C(=O)c1sc2ncnc(N(CC)CC)c2c1C (stereo not drawn)
→ -1.3	i
- CN(C)S(=O)(=O)c1ccc(N2CCN(S(=O)(=O)c3ccc(F)cc3)CC2)c(Cl)c1
→ -0.12	i
- CCOC(=O)C1=C(C)Nc2nnnn2C1c1ccc(OC)c(Br)c1 (stereo not drawn)
→ 0.5	i
- COc1ccc(-c2nc(=S)[nH][nH]2)cc1OC
→ 1.6	i
- Cc1cc(S(=O)(=O)NC2CCCCC2)ccc1OCC(=O)NCc1ccccn1
→ 1.4	i
- O=[N+]([O-])/C=C\c1ccc(N2CCCC2)c(F)c1
→ 0.03	i
- CCn1c(C(C)NC(=O)c2ccccc2C)n[nH]c1=S (stereo not drawn)
→ 1.8	i
- Oc1ccccc1/C=N/NC(=S)NCCc1ccccc1
→ -0.09	i
- COc1ccccc1C/C(N)=N/OC(=O)COc1cccc2ccccc12
→ -0.21	i
- CN(C)CC/C=C1/c2cc(F)ccc2CSc2ccc(F)cc21
→ 1.5	i
- COc1ccc(C(=O)NNC(=O)CCC(=O)NNC(=O)c2ccc(OC)cc2)cc1
→ -0.56	i
- O=C(NC1CCCC1)C(c1ccccc1)N(Cc1cccnc1)C(=O)Cc1cccs1 (stereo not drawn)
→ -0.03	i
- O=C(/C=N/O)NCC1CCNCC1
→ 2.1	i
- CCOc1ccccc1NC(=O)Cn1nnc(C(=O)NCCc2ccc(OC)c(OC)c2)c1N
→ -0.93	i
- COc1ccccc1OCc1cc(C(=O)N2CCN(C)C(c3ccccc3)C2)no1 (stereo not drawn)
→ 1.1	i
- Cc1sc2nc3ccc(N4CCCCC4)nn3c(=O)c2c1C
→ -0.22	i
- CC(=O)NC(CC(=O)Nc1cccc(S(=O)(=O)N2CCCC2)c1)c1ccccc1 (stereo not drawn)
→ -0.07	i
- COc1ccccc1CN(C)CC(=O)Nc1ccc(Cl)cc1C(F)(F)F
→ 2.5	i
- Cc1cccc(N=Nc2c(C)[nH]n(C(N)=S)c2=O)c1C
→ -1.4	i

# The listing continues.
# Each structure is followed by: KCNQ2 inh baseline	KCNQ2 inh
- CCOc1ccc(C(C)=O)cc1CSc1nc(C)cc(C)n1
→ -0.03	i
- CC(=O)Nc1ccc(NC(=O)CCCNC(=O)c2ccc(Cl)cc2)cc1
→ 1.8	i
- S=c1[nH]c2cnccc2n1Cc1ccccc1
→ 0.26	i
- Brc1ccc(OCc2ccccc2)c(CNCc2ccncc2)c1
→ 0.75	i
- CCc1ccc(S(=O)(=O)NCCOc2cccc3cccnc23)cc1
→ -0.65	i
- Cc1ccc(Cn2nnc3c(=O)[nH]c(C4CCCN(C(=O)Nc5ccc(F)cc5F)C4)nc32)cc1 (stereo not drawn)
→ 1.6	i
- O=C(O)c1ccc(-n2c(=O)c3ccccc3c3ccccc3c2=O)cc1
→ -0.03	i
- CCCn1c(N2CCN(CC(=O)Nc3ccc4c(c3)OCCO4)CC2)nc2ccccc21
→ -0.42	i
- COc1cccc(/C=N/NC(=O)c2cnn(-c3ccccc3)c2N)c1
→ 0.11	i
- Oc1ccc(N2CCN(C(c3cccs3)c3nnnn3CCc3ccccc3)CC2)cc1 (stereo not drawn)
→ 0.13	i
- COc1ccc(CCNC(=S)Nc2cc(C)ccc2C)cc1
→ -0.7	i
- O=C(NCCC1CCCCN1S(=O)(=O)c1ccccc1)C(=O)NCc1ccco1 (stereo not drawn)
→ -0.93	i
- Cc1c(C(=O)N2CCCCCC2)c(S(=O)(=O)NCc2ccccc2Cl)c(C)n1C
→ 0.43	i
- COc1cccc(OC)c1C(=O)NC(=O)Oc1c(F)cccc1F
→ -0.69	i
- Cc1ccc(CCNC(=O)CNC(=O)c2cccs2)cc1
→ -0.26	i
- Cn1nnnc1SCC(=O)Nc1nc2ccccc2s1
→ -1.2	i
- O=C1C=C(c2ccccc2)CC(c2cccs2)C1n1cnc([N+](=O)[O-])c1 (stereo not drawn)
→ 0.37	i
- Cc1ccc(S(=O)(=O)c2nc(S(C)(=O)=O)sc2N2CCC(C(N)=O)CC2)cc1
→ 1.3	i
- CNc1ccccc1C(=O)OCC(=O)c1ccc(F)cc1
→ -1.2	i
- O=S(=O)(c1ccccc1)[C@@]1(c2ccc(Br)cc2)C[C@@H]2ON=C(c3cccc(Br)c3)[C@@H]2C1
→ 0.04	i
- COc1ccc(Br)cc1CN1CCC(N2CCCC2)CC1
→ -1.8	i
- Cc1ccc(S(=O)(=O)CCC(=O)N2CCc3ccccc32)cc1
→ -0.92	i
- CC(C)c1ccc(/C=C/C(=O)NNC(=O)c2cccnc2)cc1
→ -1.7	i
- Cc1ccc(-c2ccnc3nc(-n4cccc4)nn23)o1
→ 0.02	i
- Cc1ccc(CN2C(=O)C3CCCN3c3ncccc32)cc1 (stereo not drawn)
→ -0.56	i
- Cc1cc(NCCCn2ccnc2)n2nc(C)c(-c3ccc(Cl)cc3)c2n1
→ 9	i

# An excerpt (hit frequency here may not be typical).
